Assay outcomes from PubChem BioAssay.
Arbovirus anti: arbovirus infection inhibition; arbovirus infection cell-based antiviral screen; inhibition, % at 10 µM; 200,000 compounds, 0.37% hits;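 active means inhibition from about 30%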;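 further: bluetongue infection of BSR cells; cell survival read as ATP light after 72 h; 0% = infected wells without compound and 100% = uninfected wells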
Mtb growth: M. tuberculosis H37Rv growth inhibitors, H37Rv strain (AID 1626) | M. tuberculosis H37Rv growth inhibition; higher % means a stronger effect | one-dose inhibition, % at 10 µM; IC50 in µM for titrated hits | 220,000 compounds, 0.95% hits;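 active means confirmed in a dose series; inconclusive means inhibition above 80% but not taken into the dose series; inactive means below 80% or under 30% at every dose of the series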;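 further: bacteria incubated seven days before Alamar blue readout; 0% = bacteria only wells and 100% = bacteria with antibiotic wells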
RecA intein inh: Mtb RecA intein splicing inhibition | P9WHJ3 | cell-free RecA intein splicing, fluorescence | inhibition, %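 (about 9 µM by stock and volumes)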 | 290,000 compounds, 0.75% hits; in the data active means inhibition above about 30%; inconclusive means no clear call, values can overlap the other calls;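 further: 0% = vehicle wells and 100% = reference inhibitor control wells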
Target sequence (P9WHJ3 whole entry, looked up): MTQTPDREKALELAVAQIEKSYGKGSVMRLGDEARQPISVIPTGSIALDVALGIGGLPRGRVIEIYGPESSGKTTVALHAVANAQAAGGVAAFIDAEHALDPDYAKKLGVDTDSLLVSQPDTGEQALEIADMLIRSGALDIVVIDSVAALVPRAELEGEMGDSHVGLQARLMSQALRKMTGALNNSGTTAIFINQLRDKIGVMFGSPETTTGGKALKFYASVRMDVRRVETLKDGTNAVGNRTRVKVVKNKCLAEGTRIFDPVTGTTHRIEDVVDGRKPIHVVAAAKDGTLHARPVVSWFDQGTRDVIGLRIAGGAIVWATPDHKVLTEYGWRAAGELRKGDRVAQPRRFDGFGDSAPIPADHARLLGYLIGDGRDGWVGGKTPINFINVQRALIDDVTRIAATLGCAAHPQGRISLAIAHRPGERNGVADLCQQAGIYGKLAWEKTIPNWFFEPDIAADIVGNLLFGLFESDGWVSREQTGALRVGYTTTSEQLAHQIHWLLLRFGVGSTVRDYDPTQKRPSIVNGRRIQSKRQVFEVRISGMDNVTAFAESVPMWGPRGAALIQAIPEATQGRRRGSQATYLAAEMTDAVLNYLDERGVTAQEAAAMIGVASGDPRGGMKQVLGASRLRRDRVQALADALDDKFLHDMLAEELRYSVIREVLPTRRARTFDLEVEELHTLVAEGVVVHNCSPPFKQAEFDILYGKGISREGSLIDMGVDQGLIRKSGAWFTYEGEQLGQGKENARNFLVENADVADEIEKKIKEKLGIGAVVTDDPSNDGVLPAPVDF
Mtb bLac sens: beta-lactam sensitization of Mtb H37Rv | M. tuberculosis H37Rv growth with meropenem, percent inhibition; hits of this screen are not shown here | inhibition, % at 25 µM | 330,000 compounds, 0.27% hits | AID 434955;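 active means about 74% or more and at least 40 points above the plate without the antibiotic, then above 30% in a dose series; inconclusive means first-round hits that could not be retested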;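 further: growth measured after seven days incubation then overnight dye step; 0% = bacteria only wells and 100% = bacteria with antibiotic; twin plates without the antibiotic show which effects depend on it; some results filed as inactive read as strong as hits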
YopH PTP inh: blocks Yersinia enterocolitica YopH tyrosine phosphatase; fluorescence Ex485/Em525; AID 898; 140,000 compounds, 0.16% hits; inhibition, %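 (about 10 µM by stock and volumes)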;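 active means inhibition of 50% or more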;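 further: controls were vehicle for no effect and minimum signal wells for full effect; inactives centre near -20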
Arbovirus anti repeat: also measured in Arbovirus anti; calls as there; inhibition, %; measured here: 10K subset replicate screen; many hits read low in the repeat;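 first of two repeat runs on a subset; 0% = infected and 100% = uninfected wells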
Numbers without * were called inactive; ? = inconclusive; · = no result given. An excerpt; the hit share may differ from the screen's.

SMILES	Arbovirus anti	Mtb growth	RecA intein inh	Mtb bLac sens	YopH PTP inh	others
CCOC(=O)C1CCCN(S(=O)(=O)c2cc3c4c(c2)CCC(=O)N4CCC3)C1 (stereo unspecified)	·	·	-0.2	-4	·
CCCCc1ccc(NC(=S)Nc2ccc(Nc3ccc(OC)cc3)cc2)cc1	-18	?	10	98	-32
O=C(NCc1ccccc1)C1CCCN1S(=O)(=O)c1ccc(Cl)cc1 (stereo unspecified)	·	·	-2.1	-7	·
CCn1c(C)c(C(C)=O)c(N2CCN(c3ccc(OC)cc3)CC2)nc1=S	5	6%	-6.1	-1	·
CCn1cc(NC(=O)Nc2ccccc2C(=O)OC)c(C(N)=O)n1	4	-5%	3.3	10	-18
NC(=O)c1sc2nc(-c3ccccc3)c3c(c2c1N)CCCC3	-3	5%	-57	67	·
Cc1cccc(NC(=S)N2CCN(C(=O)c3ccco3)CC2)c1	·	·	-0.7	7	·
CC1Cc2ccccc2N1S(=O)(=O)c1cccc(C(=O)NCCCn2ccnc2)c1 (stereo unspecified)	4	-1%	3.1	-5	·
Cc1cnc(C(=O)Nc2ccc3c(c2)CCC3)cn1	0	-5%	2.5	18	-26
Cc1cccc(CNC(=O)c2ccc3c(c2)N(C)CCS3)c1	·	·	-7.4	-11	·
COC(=O)c1ccc(-c2ccco2)n1Cc1cc(C)ccc1C	-7	-19%	0.4	-1	-14
COc1ccc(OC(C)C(=O)NC2CC(C)(C)NC(C)(C)C2)cc1 (stereo unspecified)	-5	-8%	-0.1	-3	13
O=C1Nc2ccccc2C1=Nc1ccc(F)cc1	·	·	-2.4	-6	·
COCCC(=O)NC1CCCc2c1cnn2-c1cccc(C)c1C (stereo unspecified)	·	·	0.0	-9	·
COc1ccc(-n2c(SCC(=O)NCC3CCCO3)nc3n[nH]c(C)c3c2=N)cc1 (stereo unspecified)	4	5%	0.3	-4	-39
O=C(NCCCN1CCOCC1)c1ccc2c(=O)n(CCc3ccccc3)c(=O)[nH]c2c1	6	-3%	-1.5	?	-12
CC(C)(C)C(=O)NC(=S)NCCc1ccccc1	-2	12%	0.1	-4	-23
O=C(c1cc(-c2ccccc2)nn1-c1ccccc1)N1CCN(S(=O)(=O)c2cccc(F)c2)CC1	·	·	1.5	-1	·
CCOC(=O)C1=C(C)NC(SCC(=O)Nc2cc(C)on2)=C(C#N)C1c1cccs1 (stereo unspecified)	-7	12%	-1.6	13	-56
CCOC(=O)c1c(S(=O)(=O)N2CCN(c3ccc(C(C)=O)cc3)CC2)c(C)n(C)c1C	·	·	-0.9	6	·
CC(C)C(=O)NC(Nc1cc(C(F)(F)F)ccc1Cl)C(Cl)(Cl)Cl (stereo unspecified)	6	3%	0.7	-3	15
Cc1ccc(N(CC(=O)Nc2cccc(Cl)c2C)S(C)(=O)=O)cc1	·	·	0.6	-3	·
Cc1ccc(CN2C(=O)N/C(=C\c3cccn3-c3cccc(C(=O)O)c3)C2=O)cc1	1	-3%	4.4	5	·
O=C(Cn1ccc([N+](=O)[O-])n1)NCc1nc2ccccc2[nH]1	1	5%	0.3	2	·
Cc1ccc(S(=O)(=O)NC(C)(C)CSc2nncn2C)cc1	10	-2%	5.9	-3	-8
CCNC(=S)NNC(=O)c1cccn(Cc2ccc(Cl)cc2Cl)c1=O	-4	5%	-2.1	0	-37
CCN(CC)C(=O)NC1CCCCCCC1	2	0%	1.7	-3	·
Cc1cccc(C(=O)NC(=S)Nc2ccccc2C(=O)O)c1	6	-1%	-1.3	-3	·
O=C(Nc1cccc2ccccc12)c1cccc(F)c1	·	·	2.0	20	·
CCOc1ccc(CN2CCN(C/C=C/c3ccc(OC)cc3)CC2CCO)cc1 (stereo unspecified)	-22	5%	3.7	87	·
CCOc1ccc(NC(=O)c2ccc(CNc3c(NC4CCCCC4)c(=O)c3=O)cc2)cc1	-19	·	0.7	10	-14
C/C(CC(=O)NC12CC3CC(CC(C3)C1)C2)=N\NC(=O)c1cnccn1	1	-4%	8.2	12	·
CCn1c(COc2cccc(C)c2)nnc1SCC(=O)N1CCCC1	0	14%	1.8	6	-22
O=C(NCC1CCOCC1)c1cc(COc2cccc(C(F)(F)F)c2)on1	·	·	1.1	4	·
CC(C)CC(C)NNC(=O)c1cc2ccccc2[nH]1 (stereo unspecified)	3	1%	-1.1	·	5
CCOC(=O)C1CCN(S(=O)(=O)c2csc(C(N)=O)c2)CC1	·	·	0.2	-1	·
BrCC1C[n+]2c(SCc3ccccc3)nc3sc4c(c3c2O1)CCCC4 (stereo unspecified)	·	13%	0.8	-1	·
CCCN1CCN(C(=O)c2cn(CC(C)C)c(=O)c3cc(OC)c(OC)cc23)CC1	3	·	6.4	14	-17	Arbovirus anti repeat=4
CCc1cccc(C)c1NC(=O)CC1Oc2ccc(C)cc2NC1=O (stereo unspecified)	·	·	-1.4	5	·
CCN(CC)CCn1c(=S)[nH]c2ncccc2c1=O	-4	-5%	2.2	-13	7
CNc1cc(F)nc(F)n1	1	-2%	-0.8	-20	·
CC(=O)c1c(C)nc2ccc(Br)cc2c1C(=O)O	-4	8%	-4.1	8	1	Arbovirus anti repeat=2
CC1(C(=O)O)CCC(C(=O)Nc2ccc(Cl)c(Cl)c2)C1(C)C (stereo unspecified)	·	·	-0.6	1	·
CC(=O)N1c2ccc(S(=O)(=O)N3CCCC3)cc2CC1C(=O)Nc1cc(C)cc(C)c1 (stereo unspecified)	·	·	1.3	1	·
O=C(CNc1cccc(S(=O)(=O)N2CCOCC2)c1)N1CCc2ccccc21	·	6%	-2.7	-5	·
CN(CCN1CCOCC1)Cc1nc(-c2ccc(Cl)cc2)no1	·	1%	0.8	1	·
COc1ccc(CNCc2c(O)c(Cl)cc3c(C)c(C)c(=O)oc23)c(OC)c1	·	·	-394	-7	·
O=C(NCc1ccc2c(c1)OCO2)c1ccc(Cl)c(S(=O)(=O)NCc2ccccc2)c1	-3	1%	3.5	?	-6
O=C([C@H](Cc1ccccc1)NS(=O)(=O)c1ccc(Cl)cc1)N1CC[C@@]2(O)CCCC[C@H]2C1	-21	4%	1.2	-7	-23
CC(C)Oc1ccc(CNC(=S)N/N=C/c2cccnc2)cc1	-1	3%	-7.1	13	-38
COc1ccccc1CN1CC(C(=O)N2CCN(c3ccc(F)cc3)CC2)CC1=O (stereo unspecified)	-2	-5%	0.8	-5	-12
CCOC(=O)[C@@H]1[C@H]2COc3ccccc3[C@@H]2N2C(=O)N(c3ccc(C(F)(F)F)cc3)C(=O)[C@]12C	·	-5%	2.6	5	·
Cc1ccccc1NS(=O)(=O)c1cc(C(N)=O)ccc1C	3	16%	2.7	-6	-29
Cc1cc(C)c(C(=O)NC2CCCc3c2cnn3-c2ccc(C)c(C)c2)c(=O)[nH]1 (stereo unspecified)	·	·	-0.7	6	·
COc1cc(OC)c(OC)cc1CN1CCN(Cc2cccn2C)CC1	2	-2%	4.2	3	0
CC1CN(C(=O)COC(=O)c2cc([N+](=O)[O-])ccc2Cl)CC(C)O1 (stereo unspecified)	4	-4%	·	21	·
COc1ccc(OC)c(NC(=O)CCN2CCN(c3ccccc3OC)CC2)c1	·	·	1.9	5	·
Cc1ccc(NC(=O)C2CCCN(S(=O)(=O)c3ccc4[nH]c(=O)ccc4c3)C2)cc1C (stereo unspecified)	·	·	-1.3	?	·
O=C(CN(C(=O)Cn1nnc(-c2cccs2)n1)c1ccc2c(c1)OCCO2)NCc1ccccc1	-3	4%	5.1	11	-11
Cc1nn(-c2nc3ccccc3n2Cc2ccccc2)c2c1C(=O)CC(C)(C)C2	-2	10%	4.0	-5	-37

Five structures from above, arranged by length of the SMILES, ascending:
SMILES	Arbovirus anti	Mtb growth	RecA intein inh	Mtb bLac sens	YopH PTP inh	others
Cc1ccccc1NS(=O)(=O)c1cc(C(N)=O)ccc1C	3	16%	2.7	-6	-29
COc1ccccc1CN1CC(C(=O)N2CCN(c3ccc(F)cc3)CC2)CC1=O (stereo unspecified)	-2	-5%	0.8	-5	-12
Cc1nn(-c2nc3ccccc3n2Cc2ccccc2)c2c1C(=O)CC(C)(C)C2	-2	10%	4.0	-5	-37
O=C(CN(C(=O)Cn1nnc(-c2cccs2)n1)c1ccc2c(c1)OCCO2)NCc1ccccc1	-3	4%	5.1	11	-11
O=C([C@H](Cc1ccccc1)NS(=O)(=O)c1ccc(Cl)cc1)N1CC[C@@]2(O)CCCC[C@H]2C1	-21	4%	1.2	-7	-23

At a glance, part of the list above:
SMILES	Arbovirus anti	Mtb growth	RecA intein inh	Mtb bLac sens	YopH PTP inh	others
O=C(CN(C(=O)Cn1nnc(-c2cccs2)n1)c1ccc2c(c1)OCCO2)NCc1ccccc1	-3	4%	5.1	11	-11
Cc1nn(-c2nc3ccccc3n2Cc2ccccc2)c2c1C(=O)CC(C)(C)C2	-2	10%	4.0	-5	-37

Continued.
SMILES	Arbovirus anti	Mtb growth	RecA intein inh	Mtb bLac sens	YopH PTP inh	others
CC1=C(C(=O)OCc2ccccc2)C(c2ccccc2[N+](=O)[O-])NC(=O)N1C (stereo unspecified)	·	·	-1.7	-3	·
COc1ccc(C(=O)NCC2(c3ccccc3)CCCC2)c(OC)c1	·	·	-2.3	69	·
C/C(=N\Nc1nc2ccccc2[nH]1)c1ccc2c(c1)OCCO2	-15	46%	2.8	1	·
CCOC(=O)c1cc(-c2ccco2)nc2c1c(C)nn2-c1ccccc1	9	7%	-4.2	37	-41
CCc1ccc(CN(C)Cc2nc(Cc3ccc(OC)c(OC)c3)no2)nc1	-3	3%	0.4	-1	·
Cc1ccc(N(CC(O)CN(C)C)S(=O)(=O)c2ccccc2)cc1 (stereo unspecified)	-5	1%	0.8	-4	7
CCOC(=O)c1sc(=N)n(-c2ccc(OC)cc2)c1C	-4	·	-1.5	2	-19
OCC1(Cc2ccccc2C(F)(F)F)CCN(Cc2ccncc2)CC1	·	-7%	-3.1	-2	·
CSc1nc(-c2ccc(Cl)cc2)nn1C(=O)c1ccccc1	-11	7%	4.3	-3	-4
CCNc1ccc(S(=O)(=O)N(C)C)cc1[N+](=O)[O-]	9	-5%	-0.9	-5	·
NCCSc1c(-c2ccc(Cl)cc2)[nH]c2ccccc12	·	7%	0.3	-2	·
Cc1ccc(Nc2nc(N)c([N+](=O)[O-])c(NCc3ccco3)n2)cc1	7	20%	3.8	5	-21
COc1cccc(C(=O)CN2CCC(NC(=O)NC3CCCCC3)CC2)c1	1	-1%	4.7	·	-13
O=C(CNS(=O)(=O)c1ccccc1)OCC(=O)c1cccc([N+](=O)[O-])c1	-3	-15%	-3.5	-3	-19
O=C(Cn1nnc2ccccc21)NNC(=O)c1ccccc1	·	·	0.0	0	·
O=C(CCc1nnc(CCc2ccccc2)o1)N1CCCCC1CCn1cccn1 (stereo unspecified)	5	-7%	-0.2	-9	·
CC1CC(C)CN(C(=O)CN2CCN(Cc3ccc(Cl)cc3)C2=O)C1 (stereo unspecified)	-3	0%	0.6	-4	-16
COc1ccccc1-n1cc(C(=O)NCC(=O)N2CCN(Cc3ccccc3)CC2)c2ccccc2c1=O	1	1%	-1.2	-3	·
O=C(NCCOc1ccc2ccccc2c1)c1cncc(Br)c1	·	0%	7.7	-3	·
O=S(=O)(c1ccc(Br)cc1)n1ccc2ccccc21	-25	-3%	·	1	-6
NC(=O)c1c(NC(=O)Cn2cnc([N+](=O)[O-])n2)sc2c1CCCC2	·	-2%	-1.2	8	·
Cc1ccc(OCCCC(=O)NNC(=O)c2ccncc2)cc1	·	·	0.2	98	·
CCN(CC)CC(C(=O)N(CC)CC)P(=O)(c1ccccc1)c1ccccc1 (stereo unspecified)	10	-5%	-2.3	-14	-13
O=C(/C=C/c1ccccc1)NC(=S)Nc1ccc2c3c(cccc13)CC2	-16	11%	1.2	6	-23
O=S(=O)(c1ccc(Cl)cc1)N1CCN2CCCC2C1 (stereo unspecified)	·	·	1.1	0	·
Cc1ccc(C)c(NC(=O)CCC(=O)N2CCOc3ccccc32)c1	·	·	-0.6	-5	·
CCOC(=O)C1=C(C)N(CCCC(=O)O)C(=O)NC1c1ccc([N+](=O)[O-])cc1 (stereo unspecified)	1	-11%	-1.3	3	-26
CC1CCN(S(=O)(=O)N2CCCC(C(=O)NCc3ccccc3Cl)C2)CC1 (stereo unspecified)	·	·	1.2	0	·
Cc1cc(C)c2oc(=O)cc(CN3CCCCC3)c2c1	·	·	2.0	-4	·
CCn1c2ccccc2c2cc(/C=N/NC(=O)c3ccc(O)cc3)ccc21	-36	-1%	-0.9	3	0
Oc1cccc(Nc2nc(-c3ccccc3Cl)nc3ccccc23)c1	·	·	35*	6	·
O=S(=O)(c1ccccc1)c1cnn2c(C(F)(F)F)cc(-c3ccc(F)cc3)nc12	7	1%	-69	7	-47
Cc1cc(OCC(=O)NC2CCCCC2)ccc1Cl	-9	3%	-1.6	-11	-10
CC(C)(Oc1cccc2ccccc12)C(=O)O	-4	-10%	1.2	-2	-15
COc1cc(OC)c(S(=O)(=O)Nc2ccc(C)cn2)cc1NC(C)=O	0	-15%	-0.2	9	-41
